MT1-MMP act inh: MT1-MMP (human) activation inhibition. P50281. HT1080 RFP-PRO-GFP cells, GFP/RFP ratio fluorescence, overnight; percent of plate control window, DMSO zero. GFP/RFP ratio change, % at 20 µM. hit rate 0.061% among 360,000;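 active means GFP/RFP ratio change of at least 30% with cell ATP level not reduced by more than half and red fluorescence within 50% of control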; further: strong numbers were not always called active
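Material – HT1080 RFP-PRO-GFP cells · Control set – DMSO wells and RFP-L50D-GFP cells · Incubation – overnight cell settling, then overnight compound exposure, 37 °C, 5% CO2 · Compound dosing – single-point 20 µM compound, 1% DMSO · Read-out – GFP/RFP fluorescence ratio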
Env fusion inh: inhibitors of HIV Env-mediated cell fusion. HeLa-JRFL Env/CEM21 cell fusion, luciferase. inhibition, % at 12.3 µM. hit rate 1.1% among 360,000. AID 651610;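 active means mean replicate inhibition score of at least 50 and every replicate individually at or above 50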;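 further: 0% = plate neutral controls and 100% = maraviroc near 300 nM; one replicate is shown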
UUG fidelity: modulators of start codon recognition fidelity in yeast | S. cerevisiae UUG-firefly luciferase reporter, luminescence/redox ratio | activity score, % at 18.7 µM | hit rate 0.13% among 350,000;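 active means replicate mean at a twofold rise or more, about +100% in these data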;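 further: firefly luciferase made from a UUG start codon reports start codon fidelity; reporter light over untreated wells divided by growth signal over untreated wells; some hits fall short of that in this replicate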
eIF4H FP inh: inhibitors of RNA binding by human eIF4H; Q15056; eIF4H fluorescence polarization binding assay; inhibition, % at 35 µM; hit rate 0.94% among 290,000;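 active means 50% or more with normal probe brightness, or confirmed in later tests; about a fifth of its hits are not listed in these tables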;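 further: calls also rest on retests at 20 µM and on dose response follow-up; 0% = protein and probe with vehicle and 100% = probe without protein; strong numbers were not always called active; many hits fall short of the cut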
CSC inhib: blocks cancer stem cells | inhibition, % at 7.5 µM | hit rate 1.1% among 300,000 | cancer stem cell-like cells viability, luminescence;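 active means mean at 75% or more and at least half the replicates too; tested in HMLE shEcad cells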;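 further: 0% = median of negative and 100% = median of positive control wells; the first replicate is given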
Rce1 inhib: yeast Ras-converting enzyme inhibition. Q03530. calls only. yeast membranes, quenched prenylated peptide cleavage fluorescence. hit rate 0.27% among 290,000;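 active means fall in fluorescence gain of 50% or more versus controls, with final raw signal at or below 3038400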;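 further: plate controls were neutral control wells for no effect and wells lacking membranes for full effect; tested at 10 µM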
PABP polyA inh: blocks human PABP binding to poly(A) RNA; P11940; fluorescence polarization; inhibition, % at 35 µM; hit rate 1% among 290,000; AID 2014;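 active means 50% or more with normal probe brightness, or confirmed in later tests; about a fifth of its hits are not listed in these tables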;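 further: calls also rest on retests at 20 µM and on dose response follow-up; controls were probe without protein and protein plus probe with vehicle; some compounds called inactive have numbers as strong as hits; many hits fall short of the cut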
Target sequence (P11940 whole entry, looked up): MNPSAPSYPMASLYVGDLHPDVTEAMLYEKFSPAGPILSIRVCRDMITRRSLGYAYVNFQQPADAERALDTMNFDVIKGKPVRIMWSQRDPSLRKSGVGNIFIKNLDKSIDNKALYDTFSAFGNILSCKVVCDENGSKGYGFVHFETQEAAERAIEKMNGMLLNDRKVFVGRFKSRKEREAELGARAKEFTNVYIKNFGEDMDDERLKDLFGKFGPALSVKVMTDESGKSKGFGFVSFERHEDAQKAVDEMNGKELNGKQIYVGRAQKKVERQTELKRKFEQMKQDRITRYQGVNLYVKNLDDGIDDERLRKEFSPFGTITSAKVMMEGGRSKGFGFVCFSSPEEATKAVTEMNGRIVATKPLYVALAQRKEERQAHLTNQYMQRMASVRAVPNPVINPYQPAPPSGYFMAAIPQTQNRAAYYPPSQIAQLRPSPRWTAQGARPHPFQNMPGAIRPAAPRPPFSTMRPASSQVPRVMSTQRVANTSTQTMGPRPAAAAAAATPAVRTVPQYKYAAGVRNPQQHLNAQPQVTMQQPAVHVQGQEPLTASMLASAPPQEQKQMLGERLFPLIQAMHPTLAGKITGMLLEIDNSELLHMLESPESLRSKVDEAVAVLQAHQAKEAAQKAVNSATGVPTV
eIF4H FP inh retest: recorded beside eIF4H FP inh, whose call it bears; inhibition, %; compound at 20 µM; confirmation average;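 mean of two retest wells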
PABP polyA inh retest: second read-out of PABP polyA inh, no call of its own (marks repeat the call); inhibition, %; compound at 20 µM; confirmation repeats;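 mean of two retest wells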
MT1-MMP act inh RFP: further read-out of MT1-MMP act inh, marked with its call; RFP signal change, %; measured here: RFP expression control read;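 0 = vehicle wells; hits needed this value within 50% of zero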
Starred values were filed as active, the others as inactive; i = inactive; / = not tested or not shown. Not all compounds are listed, so the mix of outcomes need not match the whole.

SMILES	MT1-MMP act inh	MT1-MMP act inh RFP	Env fusion inh	UUG fidelity	eIF4H FP inh	CSC inhib	Rce1 inhib	PABP polyA inh	others
O=C(NC(NNc1ccc([N+](=O)[O-])cc1)(C(F)(F)F)C(F)(F)F)c1ccccc1Cl	-5	-4	-20	1	47	9	i	26
Cc1c(O)c(=O)c2ccccc2n1C	7	10	3	11	2	-3	i	-7
Cc1c(C(C)(C)O)[nH]c2cc(C(F)(F)F)ccc12	7	-11	-26	-5	-13	-9	i	-2
COc1ccc2nc(C)cc(N/N=C/c3cccc(OC)c3O)c2c1	-2	-9	-6	-5	-12	1	i	-4
C=CCn1c(SCCN)nnc1-c1cccc(S(=O)(=O)N2CCOCC2)c1	1	8	-27	-7	/	/	/	/
O=C(CC1CCOCC1)Nc1ccc(Cl)c(Cl)c1	-3	-2	-16	-15	8	-6	i	8
O=C(CSc1nc2ncccc2[nH]1)c1cccc([N+](=O)[O-])c1	1	3	-13	-5	7	/	i	7
CCOc1ccccc1NC(=O)CN(c1ccc(Cl)cc1)S(C)(=O)=O	2	-2	-43	4	0	-7	i	9
COc1ccc(-c2csc(/C(C#N)=C/Nc3ccc4c(c3)OCCO4)n2)cc1	-4	1	8	/	-18	5	i	-15
CCOc1cccc(NC(=O)C2CC(=O)N(c3ccc(F)cc3)C2)c1 (stereo not drawn)	6	3	9	/	-10	-16	i	-9
O=S(=O)(CCc1nc2ccccc2[nH]1)c1ccc(Br)cc1	5	-1	5	/	-5	-4	i	3
Cc1cc(C)c(NC(=O)C2CCCO2)c(C)c1 (stereo not drawn)	-3	2	6	/	/	-1	i	/

Overlap with the part before: 3 entries; new compounds follow.
SMILES	MT1-MMP act inh	MT1-MMP act inh RFP	Env fusion inh	UUG fidelity	eIF4H FP inh	CSC inhib	Rce1 inhib	PABP polyA inh	others
CCOc1cccc(NC(=O)C2CC(=O)N(c3ccc(F)cc3)C2)c1 (stereo not drawn)	6	3	9	/	-10	-16	i	-9
O=S(=O)(CCc1nc2ccccc2[nH]1)c1ccc(Br)cc1	5	-1	5	/	-5	-4	i	3
Cc1cc(C)c(NC(=O)C2CCCO2)c(C)c1 (stereo not drawn)	-3	2	6	/	/	-1	i	/
O=C(CSc1nnc(NC(=O)C2CC(=O)N(c3ccccc3)C2)s1)NCC1CCCO1 (stereo not drawn)	-1	3	27	13	-11	-3	i	6
CCCCN(CC)C(=O)c1cccc(Cl)c1	-3	3	6	7	-2	-4	i	-11
CCOC(=O)c1cc2c(ccn2C)n1CC(=O)N1CCCC(C)C1 (stereo not drawn)	-5	-2	-15	-14	19	1	i	12
CCN1CCN(S(=O)(=O)c2ccc(Cl)c(C(=O)N(C)Cc3cccc(OC)c3)c2)CC1	-5	-1	/	/	/	-7	i	/
Cc1ccc2nc(NC(=O)CSc3nc4c(c(=O)n3C)SC(C)C4)sc2c1 (stereo not drawn)	-6	-20	/	-14	-3	5	i	-3
C/C(=N\NC(=O)c1ccccc1C)c1cccc([N+](=O)[O-])c1	-4	-1	2	-22	-7	-6	i	-4
CCOC(=O)C1CCCN(C2CC(=O)N(c3ccc(N4C(=O)CC(N5CCCC(C(=O)OCC)C5)C4=O)cc3)C2=O)C1 (stereo not drawn)	1	3	12	5	25	-2	i	12
CCc1ccc(NC(=O)CCNS(=O)(=O)c2cccc3nonc23)cc1	0	-8	-19	-17	-1	-15	i	4
CCOc1ccc(CN2CCN(Cc3c(C)nn(CC)c3C)CC2CCO)cc1 (stereo not drawn)	-2	2	1	-15	-2	24	i	-3
CCC(C(=O)OCC(=O)Nc1ccc(OC)cc1OC)c1ccccc1 (stereo not drawn)	-1	1	7	/	1	6	i	5
CCOc1cccc(CN2CCN(CCc3ccccc3)C(CCO)C2)c1O (stereo not drawn)	-3	-1	2	/	-1	19	i	4
CCCCNC(=S)N(CCCO)Cc1cc2cc3c(cc2[nH]c1=O)OCCO3	-1	4	-10	-8	6	-1	i	2
COC(=O)c1ccc(C)c(NS(=O)(=O)c2ccc(NC(C)=O)cc2)c1	-2	-2	/	-12	0	-3	i	5
O=C(O)c1ccccc1C(=O)OCC1CCC(=NO)CC1 (stereo not drawn)	0	1	-9	-10	/	/	/	/
Cc1csc(=O)n1CCC(=O)OCC(=O)Nc1ccc(C(N)=O)cc1	3	4	/	16	/	1	i	/
COc1ccc(NC(=S)N2CCCC2c2ccc(OC)c(OC)c2)cc1 (stereo not drawn)	7	2	5	339*	-5	-3	i	14
Cc1nc(-c2ccc(C(=O)O)cc2)cs1	-5	2	-54	-17	-7	-2	i	36
CCOCCCNC(=O)C(NC(=O)c1ccc(=O)[nH]c1)c1ccccc1 (stereo not drawn)	0	-3	/	-13	-13	-6	i	7
COc1ccccc1CNCC(=O)Nc1ccccc1-n1cccc1	-2	0	-1	/	-5	10	i	-24
COc1ccc(C(=O)NCCS(=O)(=O)NCc2ccc(C)cc2)cc1	-4	1	-36	-1	/	/	i	/
CN(C)CCCN(C(=O)c1ccc(S(=O)(=O)N2CCc3ccccc3C2)cc1)c1nc2c(F)cc(F)cc2s1	1	5	/	-8	/	-1	i	/
Cn1c(CC(=O)Nc2ccccc2)nnc1SCC(=O)c1ccccc1	0	2	/	-11	6	4	i	-2
O=C1NCCCCC1NS(=O)(=O)c1cccc(C(F)(F)F)c1 (stereo not drawn)	-3	0	-8	0	-4	/	i	6
N#Cc1nc(-c2ccccc2F)oc1NCCN1CCOCC1	4	2	10	-2	-10	0	i	5
CC(=O)Nc1cccc(N(C(=O)C2COc3ccccc3O2)C(C(=O)NC2CCCCC2)c2cn(C)nc2C)c1 (stereo not drawn)	1	4	20	/	-6	-5	i	3
Cc1cc(C)n(-c2nnc3n2N=C(c2ccccc2)CS3)n1	2	3	-18	-16	2	-9	i	4
Cc1ccccc1C(=O)Nc1c(C(=O)N(CCN(C)C)Cc2ccco2)oc2ccccc12	0	2	17	-11	6	-2	i	1
Clc1cccc(C2Nc3cccc4cccc(c34)N2)c1Cl	2	5	12	-23	103*	-7	i	70*	eIF4H FP inh retest=107*;PABP polyA inh retest=104*
O=C(CCNC(=O)C1CCN(S(=O)(=O)c2ccccc2)CC1)Nc1cccc(C(F)(F)F)c1	-4	-7	31	4	-18	-19	i	2
CCOc1ccccc1NC(=O)CSc1ccc2nnc(-c3cccnc3)n2n1	4	-1	13	/	-1	-6	i	50	eIF4H FP inh retest=9;PABP polyA inh retest=18
COC(=O)c1ccccc1NC(=O)Oc1ccc(C(C)C)cc1	1	4	/	0	5	2	i	-9
O=c1cc(-c2ccco2)nc(-c2cccs2)o1	1	3	/	-20	2	3	i	15
O=C(COC(=O)c1ccc2ncsc2c1)NCc1ccccc1Cl	-1	1	-1	-1	/	-9	/	/
Nc1cccc2c1C(=O)N(Cc1nnc(-c3ccccc3Br)o1)C2=O	-1	4	-15	-24	46	-3	/	20
CCOCCCNC(=S)N1CCN(C(=O)C(=O)Nc2ccc(C(=O)OC)cc2)CC1	3	3	12	/	2	-9	i	-10
COc1ccccc1N1CC(C(=O)Nc2cc(C(F)(F)F)ccc2N2CCCC2)CC1=O (stereo not drawn)	4	-2	-12	-18	/	/	i	/
O=C(/C=C/Nc1ccccc1Br)c1ccccn1	3	-1	/	/	8	-11	i	18
O=C(COC(=O)c1ccc2[nH]c3c(c2c1)CCCC3)NC1CCS(=O)(=O)C1 (stereo not drawn)	6	-5	24	/	-4	2	i	4
Cc1cc(C)nc(-n2nc(C)cc2NC(=O)CN2CCC(C)CC2)n1	2	2	/	-25	0	21	i	-3
O=C(NNC(=O)c1ccccc1F)c1ccc2nc[nH]c2c1	-1	2	-4	-20	23	-38	i	13
CCOC(=O)c1ccc(N2C(=O)C=C(N3CCOCC3)C2=O)cc1	-1	3	-9	-7	-6	-21	i	-5
Nc1nnc(CSCc2ccc(Cl)cc2Cl)s1	3	3	-80	1	-8	-7	i	-3
CN(C)CCCNc1ncnc2scc(-c3ccccc3)c12	-14	-2	-2	/	15	-10	i	7
CCCc1cc(=O)oc2cc(C)cc(OCC(=O)NC(Cc3ccc(Cl)cc3)C(=O)O)c12 (stereo not drawn)	-2	2	/	8	-3	-4	i	-2
CCSc1ncc(Cl)c(C(=O)Nc2ccccc2Cl)n1	1	1	-38	-7	-6	2	i	1
COc1cc(-c2noc(-c3cccs3)n2)cc(OC)c1OC	6	-1	-156	-17	1	-6	i	-11
Cc1ccc(CNC(=O)C2CCN(S(=O)(=O)N3CCOCC3)CC2)cc1	-1	1	-33	-13	-3	-1	i	-3
CCOC(=O)CNC(=O)c1cc(-c2ccc3c(c2)OCCO3)oc1C	-6	-5	-10	-20	-1	-16	i	8

Part of the list above in order of number of heavy atoms, lowest first.
SMILES	MT1-MMP act inh	MT1-MMP act inh RFP	Env fusion inh	UUG fidelity	eIF4H FP inh	CSC inhib	Rce1 inhib	PABP polyA inh	others
O=C(COC(=O)c1ccc2ncsc2c1)NCc1ccccc1Cl	-1	1	-1	-1	/	-9	/	/
CCOc1ccccc1NC(=O)CN(c1ccc(Cl)cc1)S(C)(=O)=O	2	-2	-43	4	0	-7	i	9
CN(C)CCCN(C(=O)c1ccc(S(=O)(=O)N2CCc3ccccc3C2)cc1)c1nc2c(F)cc(F)cc2s1	1	5	/	-8	/	-1	i	/

Next results.
SMILES	MT1-MMP act inh	MT1-MMP act inh RFP	Env fusion inh	UUG fidelity	eIF4H FP inh	CSC inhib	Rce1 inhib	PABP polyA inh	others
CN1C(=O)CC(Sc2ccccc2C(=O)O)C1=O (stereo not drawn)	2	-1	/	-17	-4	-2	/	-2
C/C(=N\NC(=O)CN1CCCCC1)c1cccc([N+](=O)[O-])c1	0	1	-8	/	/	-10	i	/
Cc1cnc(-c2nnc(N(C)C(=O)C3CCCO3)s2)cn1 (stereo not drawn)	-3	1	-95	-13	-2	/	i	-6
Cc1cc(C)n(C(=O)C(C(=O)c2ccccc2)C(C)C)n1 (stereo not drawn)	-2	2	/	/	-2	-10	i	12
Cc1noc(C)c1COC(=O)c1cc2c3ccccc3n(C)c2s1	0	-2	-55	-18	7	7	/	9
COc1ccc(-c2noc(CCC(=O)Nc3nc4ccccc4s3)n2)cc1	/	/	/	/	-11	-12	i	3
C/C(=N\NC(=O)c1cccc(F)c1)c1ccc(Br)s1	20	-4	-8	/	-1	50	i	3
O=C(CN1CCN(c2ncc(C(F)(F)F)cc2Cl)CC1)NCCNc1ncc(C(F)(F)F)cc1Cl	-3	-8	/	23	-6	-5	i	-7

In the list so far, these contain a furan ring, fused or not:
SMILES	MT1-MMP act inh	MT1-MMP act inh RFP	Env fusion inh	UUG fidelity	eIF4H FP inh	CSC inhib	Rce1 inhib	PABP polyA inh	others
Cc1ccccc1C(=O)Nc1c(C(=O)N(CCN(C)C)Cc2ccco2)oc2ccccc12	0	2	17	-11	6	-2	i	1
O=c1cc(-c2ccco2)nc(-c2cccs2)o1	1	3	/	-20	2	3	i	15
CCOC(=O)CNC(=O)c1cc(-c2ccc3c(c2)OCCO3)oc1C	-6	-5	-10	-20	-1	-16	i	8
